Cruzain inh Det: inhibitors of Trypanosoma cruzi cruzain with detergent. purified cruzain, Z-FR-AMC fluorescence, 0.01% Triton. Potency, µM, for inactives: max response, negative = inhibition, most hits filed as inhibitors. 200,000 compounds, 0.43% hits. AID 1478; active means well fitted curve in the direction sought with a large enough effect; inconclusive means small, poorly fitted or top-dose-only effect, or another doubt; inactive means no such curve, though single readings can be large; an effect the other way counts as inactive or inconclusive;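 further: plate controls were neutral wells for no effect and buffer without enzyme for full effect; nearly all actives have a fitted effect of over 40% in size; top concentration of the series not given in the record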
Target sequence (P25779 123-467 limits assumed): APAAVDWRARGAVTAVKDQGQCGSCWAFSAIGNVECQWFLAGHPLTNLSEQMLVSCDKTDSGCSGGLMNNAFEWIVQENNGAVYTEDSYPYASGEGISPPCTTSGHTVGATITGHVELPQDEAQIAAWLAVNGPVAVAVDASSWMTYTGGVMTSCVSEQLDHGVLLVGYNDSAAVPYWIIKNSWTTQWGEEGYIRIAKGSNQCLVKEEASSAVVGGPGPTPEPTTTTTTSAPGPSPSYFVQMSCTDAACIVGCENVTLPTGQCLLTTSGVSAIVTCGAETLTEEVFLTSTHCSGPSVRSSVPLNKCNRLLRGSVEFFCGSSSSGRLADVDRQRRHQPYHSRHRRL
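Steps: dispense cruzain (1.5 nM final) in acetate buffer pH 5.5 with DTT and 0.01% Triton X-100; pin-transfer compounds; incubate 15 min RT; add Z-FR-AMC (2 uM final); read fluorescence every 30 s, using the 60 s intensity change.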
SARS PLP yeast: blocks SARS-CoV papain-like protease in a yeast assay | S. cerevisiae expressing SARS-CoV PLpro, growth rescue; control for the full effect not named in the record | Potency, µM (highest dose often 32.9 µM), without a hit: at the top dose activity, positive = growth rescue | 330,000 compounds, 0.19% hits; further: 0% is about no effect; nearly all actives have a fitted effect of over 55% in size; growth read by luminescence after 48 h
RE007 growth inh: less growth of the S. pombe RE007 Vpr strain; S. pombe RE007 Vpr strain, BacTiter-Glo ATP luminescence, 24 h; control for the full effect not named in the record; Potency, µM (titrated, usually from 92.2 µM), for the others: at the highest dose activity change, negative = less growth; 360,000 compounds, 0.21% hits; AID 651644; active = well fitted falling curve with a large enough effect; inconclusive = small, poorly fitted or top-dose-only effect; inactive = no such curve, though single readings can be large or run the other way;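 further: on the % scale 0 is the no-effect control and ±100 the full control effect; nearly all actives have a fitted effect of over 50% in size; the assay follows cell death caused by Vpr and the record does not say whether a fall means rescue or toxicity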
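Fission yeast RE007 carrying one integrated HIV-1 vpr copy, seeded at OD 0.01 in PMG+AL medium with 23 nL pinned compound. Grown 24 h at 30 degrees; viability read by BacTiter-Glo luminescence after 5 min.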
Cruzain inh noDet: inhibitors of Trypanosoma cruzi cruzain without detergent | purified cruzain, Z-FR-AMC fluorescence, no detergent | Potency, µM, inactives show max response, negative = inhibition, usual class: inhibitors | 200,000 compounds, 2.3% hits; active means well fitted curve in the direction sought with a large enough effect; inconclusive means small, poorly fitted or top-dose-only effect, or another doubt; inactive means no such curve, though single readings can be large; an effect the other way counts as inactive or inconclusive;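 further: plate controls were enzyme without inhibitor for no effect and buffer without enzyme for full effect; nearly all actives have a fitted effect of over 40% in size; top concentration of the series not given in the record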
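Detergent-free condition (0.00005% Triton X-100) in acetate buffer pH 5.5 with DTT. 1.5 nM enzyme and compound were pre-mixed 15 min, then 2 uM Z-FR-AMC substrate added; reaction progress from fluorescence change between first and third reads (60 s).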
LASV entry inh: blocks Lassa virus binding to or entry into cells | Lassa virus pseudotype entry inhibition, cell reporter; control for the full effect not named in the record | Potency, µM (doses to about 37.9 µM), without a hit: at the highest dose activity change, negative = inhibition, usual class: inhibitors | 300,000 compounds, 1.2% hits; active means well fitted inhibition curve with a large enough effect; inconclusive means small, poorly fitted or top-dose-only effect, or effect the other way; inactive means flat fitted curve, though single readings scatter; tested in HEK293 cells; further: on the % scale 0 is the no-effect control and ±100 the full control effect; nearly all actives have a fitted effect of over 50% in size; luciferase read-out
2A StopGo: lowers the luciferase signal of an FMDV 2A StopGo reporter; human cells with a luciferase reporter of 2A StopGo recoding; control for the full effect not named in the record; Potency, µM (highest dose often 57.9 µM), without a hit: top-dose signal change, negative = less light; 410,000 compounds, 1.2% hits; active = well fitted falling curve with a large enough effect; inconclusive = small, poorly fitted or top-dose-only effect; inactive = no such curve, though single readings can be large or run the other way; tested in HEK293T cells; further: on the % scale 0 is the no-effect control and ±100 the full control effect; nearly all actives have a fitted effect of over 45% in size; luciferase light after 4 h
NS1 inh: influenza NS1 inhibition; S. cerevisiae slowed by influenza A NS1, growth recovery by OD600; Potency, µM (titrated, usually from 46.1 µM), for inactives: at the highest dose activity, positive = more growth; 270,000 compounds, 0.4% hits; AID 2326; further: actives are rising curves; nearly all actives have a fitted effect of over 50% in size
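Recovery from NS1-induced slow growth read by OD600 in budding yeast switched to galactose assay medium (pH 6.0, -URA) at 1:100 dilution. Compound 23 nl per well; the matching strain lacking NS1 serves as control.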
MARV entry inh: Marburg virus entry inhibition. Potency, µM (doses to about 37.8 µM), for the others: at the top dose activity change, negative = inhibition, actives largely listed as inhibitors. Marburg virus pseudotyped entry inhibition, cell reporter; control for the full effect not named in the record; about a third of the inactives were read at about 46 µM. 300,000 compounds, 1.8% hits; active = well fitted inhibition curve with a large enough effect; inconclusive = small, poorly fitted or top-dose-only effect, or effect the other way; inactive = flat fitted curve, though single readings scatter; tested in HEK293 cells; about a fifth of its hits are not listed in these tables; further: on the % scale 0 is the no-effect control and ±100 the full control effect; luciferase read-out
Active calls of the source: *; ? = inconclusive; / = no result given; & = joins results of further samples; [ ] = another dose, or the depositor's remark. Unless noted, the call rests on the fitted dose curve; in most records, active means well fitted rising curve with a large enough effect; inconclusive means small, poorly fitted or top-dose-only effect; inactive means no such curve, though single readings can be large or run the other way. Potency means the concentration at half of the fitted maximal effect.

The opening three records as a preview:
Screens in order: Cruzain inh Det	SARS PLP yeast	RE007 growth inh	Cruzain inh noDet	LASV entry inh	2A StopGo	NS1 inh	MARV entry inh
1. Cc1cc(C(=O)N2CCCC(N3CCN(c4cccc(C(F)(F)F)c4)CC3)C2)nn1C (centres undefined)
    /	-5%	-1%	/	/	8%	-17%	/
2. COc1ccc(Cn2c(=O)c3oc4ccccc4c3n(CC(=O)Nc3c(C)cccc3C)c2=O)cc1
    -0.1%	/	/	-7%	15%[46.1 µM]	-8%	/	/
3. CC1(C)CC(=O)NC=C(c2ccccc2)C1
    -0.7%	10%	21%	3%	16%	-2%	-4%	-16%

The whole of this part, from the first entry:
Screens in order: Cruzain inh Det	SARS PLP yeast	RE007 growth inh	Cruzain inh noDet	LASV entry inh	2A StopGo	NS1 inh	MARV entry inh
1. Cc1cc(C(=O)N2CCCC(N3CCN(c4cccc(C(F)(F)F)c4)CC3)C2)nn1C (centres undefined)
    /	-5%	-1%	/	/	8%	-17%	/
2. COc1ccc(Cn2c(=O)c3oc4ccccc4c3n(CC(=O)Nc3c(C)cccc3C)c2=O)cc1
    -0.1%	/	/	-7%	15%[46.1 µM]	-8%	/	/
3. CC1(C)CC(=O)NC=C(c2ccccc2)C1
    -0.7%	10%	21%	3%	16%	-2%	-4%	-16%
4. O=C(Nc1ccccc1F)c1ccccc1-c1ccccc1
    -0.1%	?	-4%	1%	8%	-13%	-3%	6%
5. COC(=O)CCCC(=O)N1CCCC(C(=O)c2ccc(-c3ccccc3)cc2)C1 (centres undefined)
    /	-2%	-11%	/	/	7%	-30%	/
6. Cc1c(NC(=O)C(C)OC(=O)C23CC4CC(CC(Br)(C4)C2)C3)c(=O)n(-c2ccccc2)n1C (centres undefined)
    /	1%	-11%	/	/	-16%	4%	/
7. Cc1cc(NC(=O)Nc2ccc3c(ccn3C)c2)sn1
    -6.1%&-1.6%	/	3%[18.4 µM]	-8%&1%	?	45%&22%[activator]	?	?
8. CCCN1C(=O)C2(SC(NC(C)=O)=NN2C(C)=O)c2cc(C)cc(C)c21 (centres undefined)
    /	0%	24%	/	3%	30%[activator]	-1%	0%[14.2 µM]
9. COCCNc1oc(/C=C/c2ccc(F)cc2)nc1C#N
    22µM*	/	/	20µM*	6%[46.1 µM]	24%	/	?
10. C=C(C)CSc1nnc([C@@H](N)Cc2c[nH]c3ccccc23)o1
    -5.4%	-10%	3%	2%	-11%	1%	11%	-17%
11. C=CCn1c(O)c(N=O)c2cc(C)ccc21
    /	0%	13%	/	-3%[46.1 µM]	-26%	0%	-16%[46.1 µM]
12. N#Cc1nc(Cc2ccccc2)oc1NCc1cccnc1
    1.7%	19%	1%	-2%	-11%	-1%	5%	5%
13. CCCCNC(=O)COC(=O)c1c2c(nc3ccccc13)/C(=C/c1cccs1)CC2
    -3.7%	-19%	27%	-8%	?	19%	?	?
14. Cc1cc(C)n(C(=O)c2cccc([N+](=O)[O-])c2C)n1
    /	-2%	6%	/	/	1%	15%	/
15. CCC(=O)N1c2ccc(S(=O)(=O)NC3CCCCC3)cc2CC1C (centres undefined)
    /	4%	-2%	/	/	23%	9%	/
16. COc1ccc(C(c2nnnn2CC2CCCO2)N2CCN(c3ccc(F)cc3)CC2)cc1 (centres undefined)
    -1.8%	1%	3%	28%	-27%	12%	-11%	2%
17. COc1ccc(S(=O)(=O)N2CCCCCC2)cc1NC(=O)Cc1ccccc1F
    /	0%	-16%	/	/	19%	10%	/
18. O=S(N1CCCCCC1)C12CC3CC(CC(C3)C1)C2 (centres undefined)
    7.7%	1%	20%	14%	9%	-1%	-14%	8%
19. CCC(Oc1ccccc1-c1nnc(-c2ccccc2)o1)C(=O)Nc1ccc(C(C)=O)cc1 (centres undefined)
    -1.6%	/	/	10%	?	42%[activator]	/	/
20. CCCC(C(=O)NCc1ccco1)N(Cc1ccco1)C(=O)CNS(=O)(=O)c1ccccc1 (centres undefined)
    /	-5%	7%	/	-3%	-1%	-1%	1%[46.1 µM]
21. O=C(Nc1ccc(C(F)(F)F)cc1)c1ccc2nc[nH]c2c1
    -6.9%	-21%	-8%	5%	-1%	20%	-52%	?
22. Cc1ccc(CS(=O)(=O)Cc2ccc(C(=O)NCc3cccs3)o2)cc1
    /	0%	-3%	/	?	-23%	/	?
23. O=S(=O)(c1cnc[nH]1)N1CCN(C(c2ccc(F)cc2)c2ccc(F)cc2)CC1
    /	2%	-2%	/	/	-19%	-17%	/
24. CC(C)[C@H]1C=C(C(=O)O)O[C@@H](OCCCCO)C1
    /	6%	2%	/	/	-16%	-7%	/
25. COc1ccc(F)cc1S(=O)(=O)n1nc(C)cc1C
    /	1%	60%	/	?	-6%	8%	3%[46.1 µM]
26. COc1ccc(-c2csc(N(CCCN3CCOCC3)C(=O)CCl)n2)cc1
    /	0%	-14%	/	-8%[46.1 µM]	-9%	-8%	47%[46.1 µM]
27. Cc1cc(/C=C2\C(=N)N3N=C(CC(=O)N4CCOCC4)SC3=NC2=O)c(C)n1-c1ccccc1
    /	?	-11%	/	/	5%	23%	/
28. O=C1c2ccccc2C(O)N1CCN1CCOCC1 (centres undefined)
    -0.8%	14%	1%	-6%	/	-18%	4%	/
29. COc1cccc(/C=N/NC(=O)c2c(C)nc3ccc(Br)cn23)c1
    /	-1%	8%	/	7%[46.1 µM]	-4%	2%	-10%[46.1 µM]
30. Nc1ccccc1-[n+]1c(-c2ccccc2)cc(-c2ccccc2)cc1-c1ccccc1
    /	1%	-4%	/	?	?	-4%	8.9µM*
31. Cc1nn(C(=O)c2ccc(Cl)cc2)c(C)c1S(=O)(=O)N1CCCCCC1
    -0.9%	/	/	-17%	13%[46.1 µM]	-3%	/	/
32. Cc1cccc(C)c1-n1ncc(C(=O)NC2CCCC2)c1C1CCNCC1
    /	1%	6%	/	/	-9%	-4%	/
33. COCc1cccc(NC(=O)CCc2ccccc2)c1
    /	1%	-2%	/	16%[46.1 µM]	23%	-9%	4%[46.1 µM]
34. Oc1cccc2c(NC(=S)Nc3ccc(OC(F)F)cc3)cccc12
    -12%	-10%	-26%	-5%	?	?	20%	?
35. COc1ccc(C(=O)Nc2ccc(N3CCCC3)cc2)cc1OC
    /	-8%	-5%	/	-12%[46.1 µM]	16%	1%	-1%[46.1 µM]
36. CC(C)Nc1nc(NC(C)C)nc(OCCOC(=O)Nc2ccccc2)n1
    -3.2%	26%	12%	-4%	3%	42%[activator]	5%	?
37. CC12CCC(=O)C=C1CCC1C2CCC2(C)C1CCC2(O)CC#N (centres undefined)
    /	/	-23%	/	2%[46.1 µM]	-15%	/	34%[46.1 µM]
38. Cc1ccc(C(C(=O)NC2CCCCC2)N(C(=O)Cc2c[nH]c3ccccc23)c2ccccc2C)o1 (centres undefined)
    -2.2%	7%	-4%	?	-4%	22%	24%	?
39. O=C(CCCOc1ccc(Cl)cc1Cl)N/N=C/c1ccccc1
    -17%	-26%	/	16%	?	-8%	-20%	?
40. O=C(NCc1ccco1)c1ccc2c(c1)C(=O)c1ccccc1-2
    -29%	-7%	-17%	-19%	23µM*	68%[activator]	-1%	?
41. O=C(Nc1cccc(NC(=O)c2ccc3c(c2)OCO3)c1)c1ccccc1
    /	-2%	-2%	/	9%	0%	/	-25%[46.1 µM]
42. O=C(CSc1n[nH]c(-c2ccccc2)n1)NCc1cccc(C(=O)O)c1
    /	-1%	-3%	/	14%	-14%	0%	4%[46.1 µM]
43. CC(=O)c1ccc(N2CCN(C(=O)CCCn3c(=O)[nH]c4ccccc4c3=O)CC2)cc1
    /	6%	-3%	/	1%	-18%	/	-6%[46.1 µM]
44. Cc1cc(C(=O)N/N=C/c2ccc(-c3cccc(Cl)c3)o2)n[nH]1
    /	0%	-23%	/	1%[46.1 µM]	-11%	-2%	-7%[46.1 µM]
45. CCc1ccc(NC(=O)Cn2nnc(C(=O)NCc3ccc(C)cc3)c2N)cc1
    0.5%	/	/	20µM*	-2%[46.1 µM]	9%	/	/
46. CCN(CC)S(=O)(=O)c1ccc(C(=O)NC2CC(=O)N(c3ccc4c(c3)OCCO4)C2)cc1 (centres undefined)
    -1.6%	/	/	24%	-9%[46.1 µM]	-27%	/	/
47. CCOc1ccc2cc(C#N)c(SCC(=O)OC)nc2c1
    -4.0%	9%	-11%	2%	?	37%[activator]	-6%	?
48. O=c1[nH]c2c(s1)C(c1ccco1)C1C3CCC(C3)C1S2 (centres undefined)
    -13%	-15%	-23%	-24%	-27%	18%	-52%	0%
49. Cc1c(-c2ccccc2Br)nc2ccccc2c1C(=O)O
    /	/	15%	/	2%	-12%	/	-17%
50. Cc1ccc(S(=O)(=O)N2CCN(Cc3ccccc3)CC2)c(C)c1N(C)S(=O)(=O)c1ccccc1
    -6.5%	-9%	3%	-1%	?	-28%	7%	?
51. COCCN(C(=O)c1cccc(OC)c1)c1nnc(-c2ccncc2)s1
    -6.9%	-2%	29%	-1%	-8%	-4%	-5%	-16%[46.1 µM]
52. CC(C)CCNC(=O)C12CN(Cc3ccccc3)CC1C(c1cccc([N+](=O)[O-])c1)=NO2 (centres undefined)
    -1.6%	-2%	-18%	-4%	/	-1%	-24%	5%
53. CCNc1nc(OC)nc(Oc2ccc(C(=O)OC)cc2)n1
    -4.2%	-9%	5%	13%	?	2%	-13%	9%
54. N#Cc1ccccc1N/C=C/C(=O)c1ccc(Cl)cc1
    /	/	5%	/	13µM*	-25%	/	?
55. Cc1ccc(C(=O)NNC(=O)c2ccccc2OCc2c(C)noc2C)cc1
    /	-4%	10%	/	6%	7%	/	3.5µM*
56. N#Cc1cn(CC(=O)N2CCCc3ccccc32)c2ccccc12
    -18%	6%	31%	?	-7%	?	-8%	-7%

Bioassay records: PubChem BioAssay, National Center for Advancing Translational Sciences (NCATS)
